Assay outcomes (PubChem)
GLA inh pH 4.5 – qHTS Assay for Inhibitors of Human alpha-Galactosidase at pH 4.5. Alpha-galactosidase A (Homo sapiens), P06280. purified enzyme, 4-MU-alpha-Gal fluorescence, pH 4.5. activity change, negative = inhibition, % at 105 µM. 230,000 tested, under 10 active. AID 1467, 2008; inconclusive = small, poorly fitted or top-dose-only inhibition, or a rising curve; inactive = flat fitted curve, though single readings scatter; no compound was filed as active;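 further: 0% = full activity with enzyme and -100% = basal without enzyme; dose as in the result columns while the protocol names 77 µM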
Rango-impB inh – qHTS Assay for Inhibitors of Rango (Ran-regulated importin-beta cargo) - Importin beta complex formation; Importin subunit beta-1 (Homo sapiens), Q14974; Rango CFP/YFP FRET sensor + importin beta, 45 min; Potency, µM (series often up to 92.2 µM), without a hit: at the highest dose inhibition of complex formation; hit rate 0.031% among 340,000; active = rising FRET ratio curve, often small or poorly fitted; inconclusive = mostly compound fluorescence or quenching in the first reads; inactive = flat curves in all reads;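 further: potency means the concentration at half of the fitted maximal effect; 0% = DMSO wells and 100% = buffer wells lacking importin beta; nearly all actives have a fitted effect of over 15% in size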
Target sequence (Q14974 whole entry, looked up): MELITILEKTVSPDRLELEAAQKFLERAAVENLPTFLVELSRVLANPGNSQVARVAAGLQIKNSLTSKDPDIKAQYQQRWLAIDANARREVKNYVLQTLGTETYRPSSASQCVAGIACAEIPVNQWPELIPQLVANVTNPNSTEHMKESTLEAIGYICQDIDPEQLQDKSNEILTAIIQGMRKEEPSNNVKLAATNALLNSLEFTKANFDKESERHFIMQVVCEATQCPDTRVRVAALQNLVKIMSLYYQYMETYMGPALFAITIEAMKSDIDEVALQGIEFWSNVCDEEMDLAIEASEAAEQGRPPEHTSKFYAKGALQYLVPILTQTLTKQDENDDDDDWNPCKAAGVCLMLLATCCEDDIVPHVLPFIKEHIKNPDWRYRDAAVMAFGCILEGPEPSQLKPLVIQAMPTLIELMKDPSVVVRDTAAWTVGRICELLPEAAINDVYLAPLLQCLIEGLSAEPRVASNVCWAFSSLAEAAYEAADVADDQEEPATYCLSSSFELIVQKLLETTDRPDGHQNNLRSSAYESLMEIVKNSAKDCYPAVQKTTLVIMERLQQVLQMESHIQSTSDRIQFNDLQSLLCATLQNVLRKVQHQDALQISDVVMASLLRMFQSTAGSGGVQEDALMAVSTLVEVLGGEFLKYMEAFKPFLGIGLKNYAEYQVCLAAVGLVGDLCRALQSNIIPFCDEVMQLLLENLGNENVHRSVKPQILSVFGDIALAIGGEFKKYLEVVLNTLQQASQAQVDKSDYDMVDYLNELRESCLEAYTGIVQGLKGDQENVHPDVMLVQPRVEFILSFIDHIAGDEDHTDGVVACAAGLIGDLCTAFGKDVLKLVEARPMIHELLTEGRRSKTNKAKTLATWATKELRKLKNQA
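FRET biosensor Rango (snurportin 1 IBB between N-terminal EYFP and C-terminal Cerulean), 50 nM in PBS/1 mM DTT/0.02% Tween-20/0.1% BSA, preincubated 5 min RT with compound; 0.125 microM importin beta added, 45 min RT, CFP/YFP FRET ratio read.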
Rango dissoc inh – qHTS Assay for Inhibitors of RanGTP induced Rango (Ran-regulated importin-beta cargo) - Importin beta complex dissociation; Biochemical FRET Rango-importin beta, RanGTP-induced dissociation; AID 540253, 2011; hit rate 0.071% among 340,000; Snurportin-1 (Homo sapiens) + GTP-binding nuclear protein Ran (Homo sapiens) + Importin …; Potency, µM (titrated, usually from 46.1 µM), inactives show at the top dose activity change, negative = inhibition; active means falling FRET ratio curve, often poorly fitted, with flat reads before Ran was added; inconclusive means other falling curves, or compound fluorescence or quenching; inactive means flat or rising ratio curve;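 further: potency means the concentration at half of the fitted maximal effect; % of control where 0% means no effect; nearly all actives have a fitted effect of over 45% in size; -100% = wells without RanGTP and RCC1; the record marks most hits as doubtful in a second field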
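Rango/importin beta premix (0.1/0.25 uM final), PBS + 1 mM DTT + 0.02% Tween-20 + 0.1% BSA; cpd 5 min RT; FRET pre-read; + RanGTP-RCC1 (0.6 uM Ran, 2 mM GTP, 0.2 uM RCC1); 45 min RT; FRET post-read, ex 430, em 486/530 nm.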
miR-21 reporter – qHTS Assay for Modulators of miRNAs and/orActivators of miR-21; 340,000 tested, under 10 active; AID 2288, 2010; HeLa miR-21 FLuc reporter, luciferase, 48 h; Potency, µM (titrated, usually from 38.3 µM), for inactives: top-dose reporter change, positive = more light; active = well fitted rising curve with a large enough effect; inconclusive = small, poorly fitted or top-dose-only effect; inactive = no such curve, though single readings can be large or run the other way;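 further: % of control where 0% means no effect; miR-21 action dims this reporter so a rising signal means less miR-21 action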
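HeLa miR-21-FLuc reporter line, endogenous miR-21; 2000 cells/well in DMEM/10% FBS; compound titration up to ~40uM final, 48 h, 37 degree Celsius; luciferase detection reagent, 15 min lysis, CCD luminescence.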
Starred values were filed as active, the others as inactive; ? = inconclusive; · = no result given.

SMILES | GLA inh pH 4.5 | Rango-impB inh | Rango dissoc inh | miR-21 reporter
COc1ccc(OC)c(Nc2cc(C)nc3ccccc23)c1 | -1 | -1.4% | 9% | 26%
COc1ccccc1NC(=O)c1ccc(NC(=O)CSc2nc(N)cc(=O)[nH]2)cc1 | · | 2.8% | 3% | ·
Cc1ccc2nsnc2c1N | 0 | 4.9% | -13% | 3%
COc1ccccc1CNC(=O)COC(=O)c1ccccn1 | · | -2.4% | 21% | ·
Cc1cccc(NC(=O)c2ccc(COc3ccccc3[N+](=O)[O-])o2)n1 | · | 0.0% | -4% | 9%
O=S(=O)(NCCc1cn2ccccc2n1)c1ccc(-c2ccccc2)cc1 | · | 3.1% | -10% | 5%
O=C(CNC(=O)c1ccc(Br)cc1)NCCc1nc2ccccc2[nH]1 | -11 | 1.9% | -5% | 0%
COc1ccccc1N(C(=O)CN1C(=O)c2ccccc2S1(=O)=O)C(C(=O)NCC1CCCO1)c1ccc(F)cc1 (centres undefined) | -3 | 0.3% | 28% | -1%
Cc1ccc(-n2ncc3c(N4CCC5(CC4)OCCO5)ncnc32)c(C)c1 | 1 | -0.4% | -16% | 0%
CNC(=O)c1nnsc1S(=O)(=O)c1ccc(Cl)cc1 | 3 | -1.0% | -2% | ?
CC1CN(C(C)C(=O)NC(c2ccccc2)c2ccccc2)CC(C)O1 (centres undefined) | · | 7.4% | -8% | 2%
C[N+]1(CC(=O)Nc2ccccc2Cl)CCN(C(=O)c2cccs2)CC1 | 2 | -1.0% | -2% | -2%
CCn1cc(CN2CCC(n3nccc3NC(=O)c3ccccc3C)CC2)cn1 | · | 4.5% | -6% | -6%
Cc1nn(-c2ccccc2)c(Cl)c1/C=N/Nc1nc2ccccc2[nH]1 | 3 | 2.1% | -16% | -76%
O=C(CCNS(=O)(=O)c1ccccc1)N1CCC(Cc2ccccc2)CC1 | · | 2.0% | -10% | 6%
CCOC(=O)N1CCN(Cc2nc3c(c(=O)[nH]c(=O)n3C)n2Cc2ccccc2C)CC1 | 4 | -1.2% | -2% | -4%
C/C=C/C=N/Nc1nc(-c2ccc([N+](=O)[O-])cc2)cs1 | -1 | -0.2% | 0% | 3%
O=C(NCc1nnc2c(C(F)(F)F)cc(Cl)cn12)c1ccc(Br)o1 | · | 0.2% | -6% | 0%
Cc1ccoc1C(=O)N1CCCC(CO)(Cc2ccc(F)cc2)C1 (centres undefined) | · | 3.6% | -3% | -4%
Nc1c2c(nc3sc4c(c13)CCCCC4)CCCCC2 | -2 | 2.7% | -14% | -59%
COC(=O)c1ccc(COc2ccccc2/C=N/O)o1 | 0 | -7.5% | -4% | -13%
Cc1cc(NC(=O)c2cc(C(C)(C)C)oc2C)no1 | -3 | ? | 2% | -17%
COc1ccc2c(CC(=O)Nc3nnc(C4CC4)s3)coc2c1 | 7 | ? | -20% | -5%
O=C(N/N=C/c1ccco1)c1ccccn1 | -19 | -1.2% | 1% | -55%
COc1ccc(/C=N/NC(=O)c2c([N+](=O)[O-])c(C)nn2C)cc1 | 8 | 3.3% | 16% | 0%
C=CCNc1nc(C(=O)OCC(=O)Nc2cc(S(C)(=O)=O)ccc2Cl)cs1 | · | 0.0% | 5% | ·
COc1cccc(Nc2nc3ccc(OC)cc3s2)c1 | 5 | ? | -6% | -51%
CCC(=O)NC(=S)Nc1ccccc1C(=O)NC1CCCCC1 | 5 | 6.0% | -7% | 0%
COc1cc(NC(=O)CN(c2ccc(C)cc2)S(=O)(=O)c2c(C)noc2C)cc(OC)c1 | · | -3.8% | -10% | 18%
CCN(CC)S(=O)(=O)c1ccc(NC(=O)c2ccc(NS(C)(=O)=O)cc2)cc1 | 1 | -3.8% | -4% | -2%
O=C(NCc1cccc(Cl)c1)C1CCN(S(=O)(=O)c2ccc(F)cc2)CC1 | · | -1.8% | -13% | 1%
Cc1ccc(C(=O)/C=C2/NC(=O)CS2)cc1 | -9 | 5.2% | -15% | -39%
CNC(=O)c1ccc2c(c1)nnn2C | 1 | -4.8% | 11% | -3%
CCCS(=O)(=O)n1nc(-c2ccc(OC)cc2)cc1N | -1 | 3.6% | 14% | -38%
COc1ccc(C(=O)NC2CC3CCCC(C2)N3Cc2ccccc2)c(OC)c1 (centres undefined) | · | 2.8% | 8% | -4%
Cc1ccc2[nH]c(CN3CCN(C)C(CCO)C3)c(C)c2c1 (centres undefined) | · | -0.7% | -29% | -3%
CN(C(=O)Cn1nnc(-c2ccc(F)cc2)n1)C1CCS(=O)(=O)C1 (centres undefined) | · | 2.7% | -1% | ·
COc1ccc(N(CC(=O)O)S(=O)(=O)c2ccc(OC)c(OC)c2)cc1 | 6 | -2.8% | -9% | -6%
CC1(C)Cc2cccc(OCC(=O)N3CCN(c4cccc(Cl)c4)CC3)c2O1 | · | -0.8% | -6% | ·
Cc1ccc(C)c(Cn2c(=O)n(C)c(=O)c3sccc32)c1 | · | -0.5% | 0% | -1%
CCOCC(=O)N1CCN(c2ccccc2OC)CC1 | 2 | -3.4% | -1% | -1%
C=C[C@@H]1c2ccccc2N(S(=O)(=O)c2ccc(C)cc2)[C@H](c2ccccc2C(F)(F)F)C1(C#N)C#N | · | 3.2% | -2% | ·
O=C(Nc1ccc(O)c2c(=O)cc(-c3ccccc3Cl)oc12)c1cccc(Cl)c1 | 1 | ? | -20% | -7%
CN(C)c1ccc(NC2=C([N+](=O)[O-])CS(=O)(=O)C2)cc1 | -1 | -0.5% | 3% | 10%
O=C(Cc1cccc2ccccc12)N/N=C/c1ccc(O)c([N+](=O)[O-])c1 | -30 | 4.1% | -23% | -7%
COC(=O)c1sc(S(=O)(=O)N2CCCCC2C)c(C(=O)OC)c1C (centres undefined) | · | -5.5% | -17% | ·
C=CCNC(=S)/N=c1\sccn1C | -8 | 1.9% | 3% | -12%
Oc1csc(Cc2nc(-c3ccc4ccccc4c3)cs2)n1 | -16 | -2.5% | 4% | -51%
CC(C)(C)NC(=O)c1cc(F)c(F)cc1Cl | 4 | 0.5% | 7% | -1%
COCCNCc1nc2sc(C)c(-c3ccccc3)c2c(=O)[nH]1 | 1 | -1.0% | -1% | -8%
COc1ccc(/C(C)=N/NS(=O)(=O)c2cc(C)ccc2C)c(OC)c1 | 8 | 3.7% | 38% | -2%
CCOc1ccc(NC(=O)CN(C)C(=O)c2ccc(N3CCOCC3)c([N+](=O)[O-])c2)cc1OCC | · | -0.8% | -19% | 1%
CCOc1ccc(/C=N/NC(=O)CNC(=O)c2ccc(S(=O)(=O)N3CCOCC3)cc2)cc1 | 5 | 2.6% | 1% | 1%
CCOC(=O)C1CCN(CC(=O)Nc2c(C(=O)OC)[nH]c3ccccc23)CC1 | -3 | · | · | 3%
CCN1C(=O)/C(=C\N2CCCCCC2)SC1=S | -3 | 1.8% | -4% | -33%
CC1(C)CC(=O)C2=C(C1)Nc1ccccc1NC2 | -3 | 0.5% | 19% | -25%
O=C(/C=C/c1ccccc1)Nc1cc(S(=O)(=O)N2CCOCC2)ccc1N1CCCC1 | 3 | 8.1% | 9% | -5%
CCCN1CCOC(CC(=O)Nc2ccc([N+](=O)[O-])cc2)C1=O (centres undefined) | -6 | -0.5% | 6% | -3%
Cc1c(NC(=O)CSc2cccc3cccnc23)c(=O)n(-c2ccccc2)n1C | 10 | 0.0% | 9% | 13%
CCCc1cc(=O)[nH]c(Nc2cc(OC)ccc2OC)n1 | -5 | 1.0% | 7% | 0%

Ordered by SMILES length (descending): three of the compounds above
SMILES | GLA inh pH 4.5 | Rango-impB inh | Rango dissoc inh | miR-21 reporter
O=C(Nc1ccc(O)c2c(=O)cc(-c3ccccc3Cl)oc12)c1cccc(Cl)c1 | 1 | ? | -20% | -7%
O=C(Cc1cccc2ccccc12)N/N=C/c1ccc(O)c([N+](=O)[O-])c1 | -30 | 4.1% | -23% | -7%
CCOC(=O)C1CCN(CC(=O)Nc2c(C(=O)OC)[nH]c3ccccc23)CC1 | -3 | · | · | 3%

(further entries)
SMILES | GLA inh pH 4.5 | Rango-impB inh | Rango dissoc inh | miR-21 reporter
CC(C)c1nc(SCC(=O)c2ccccc2)c2c(=O)n(C)c(=O)n(C)c2n1 | 3 | -4.6% | 2% | -4%
CCNS(=O)(=O)c1ccc(OCCNS(C)(=O)=O)cc1 | -5 | -4.6% | 1% | 4%
COCc1c(C(=O)N/N=C(/C)c2ccccc2)nnn1-c1nonc1N | 0 | 0.0% | 1% | -1%
Cc1cc(C)n(-c2nc(SCC(=O)NCC3CCCO3)c3c4c(sc3n2)CCCC4)n1 (centres undefined) | -9 | · | · | -7%
Cc1nnc(Sc2nc3c(c(=O)n(C)c(=O)n3C)n2Cc2ccc(Cl)cc2)s1 | 6 | 7.1% | 1% | -11%
COc1ccc(C2(O)CN(c3ccc(C)cc3)C3=[N+]2CCCC3)cc1 (centres undefined) | 7 | 1.0% | 7% | 3%
CN(C)S(=O)(=O)c1cccc(NC(=O)Cn2cnc3ccccc3c2=O)c1 | 0 | 0.1% | 20% | 3%
CCOC(=O)c1sc2nc(NC(=O)C3CC3)sc2c1C | 26 | -1.9% | 0% | -20%
Cc1cccc(N2C(=O)C(Cc3ccccc3)NC2=S)c1 (centres undefined) | -1 | -3.3% | 0% | -9%
Cn1cnnc1SC(C(=O)Nc1cc(Cl)cc(Cl)c1)c1ccccc1 (centres undefined) | -10 | -0.1% | -15% | 1%
COc1cccc(CNC(=O)CCC2CCCN(C(=O)CCc3c(C)noc3C)C2)c1 (centres undefined) | -9 | -0.2% | 2% | -2%
Cc1cn(-c2cccnc2)c(C)c1CNC[C@H]1O[C@@H](n2cnc3c(N)ncnc32)[C@H](O)[C@@H]1O | · | ? | -6% | ·
COc1ccc(C(CNC(=O)c2ccc(C)c(S(=O)(=O)Nc3ccccc3OC)c2)N2CCCC2)cc1 (centres undefined) | · | -2.2% | 2% | 14%
CC(=O)N1N=C(c2ccccc2)OC1c1cccnc1 (centres undefined) | -4 | 0.4% | 27% | -1%
Cc1cc(NC(=O)c2c(Br)cnn2C)no1 | · | -0.1% | 19% | 2%
Nc1c(N(Cc2ccccc2)C(=O)COc2ccc([N+](=O)[O-])cc2)c(=O)[nH]c(=O)n1Cc1ccccc1 | · | 0.3% | -8% | ·
COc1cccc(C(O)c2nc3ccccc3n2C(C)C)c1 (centres undefined) | 2 | -4.6% | -18% | -4%
Nc1nc(SCC(=O)Nc2ccc(Cl)cc2)[nH]c(=O)c1-c1ccccc1 | 1 | 0.1% | 1% | 2%
CCOCCCNC(=O)c1ccc2c(c1)OCO2 | -1 | -2.3% | -8% | -34%
O=[N+]([O-])c1ccccc1S(=O)(=O)c1ccccc1 | · | 1.0% | 6% | 4%
O=c1ccc(/C=C/c2ccccc2)nn1Cc1ccc(Cl)cc1Cl | -2 | 2.2% | -4% | -1%
CC(OC(=O)c1cc2sccc2n1C)C(=O)NCC1CCCO1 (centres undefined) | 1 | 7.4% | -8% | -16%
O=S(=O)(NCCc1csc(-c2ccccc2)n1)c1ccc2c(c1)OCCO2 | -9 | ? | -19% | -2%
CC1(C)C2([N+](=O)[O-])CN3CC1([N+](=O)[O-])CN(C2)C3C(O)C(O)C(O)CO (centres undefined) | -7 | -0.5% | -10% | -6%
O=C(NNC1=Nc2ccccc2SC1)c1ccc(F)cc1 | 3 | 3.0% | 11% | 13%
CCOC(=O)c1c(CN2CCOCC2)n(-c2ccccc2)c2ccc(O)cc12 | -12 | 0.4% | -8% | 1%
CCCNC(=O)c1ccc2c(=O)n(Cc3ccco3)c(=S)[nH]c2c1 | 14 | 0.7% | 13% | 6%
CCOc1ccc(-c2noc(CCCC(N)=O)n2)cc1OC | -9 | -3.3% | -8% | -6%

Only part of the results is shown. The share of hits here may be higher or lower than overall.
